# Rango-impB inh: qHTS Assay for Inhibitors of Rango (Ran-regulated importin-beta cargo) - Importin beta complex formation | Potency, µM (top dose mostly 92.2 µM), without a hit: at the highest dose inhibition of complex formation | 340,000 tested, 0.031% active | Rango CFP/YFP FRET sensor + importin beta, 45 min; active = rising FRET ratio curve, often small or poorly fitted; inconclusive = mostly compound fluorescence or quenching in the first reads; inactive = flat curves in all reads;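 also: potency is read from the fitted curve at half-maximal effect; 0% = DMSO wells and 100% = buffer wells lacking importin beta; nearly all actives have a fitted effect of over 15% in size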
# Target sequence (Q14974 whole entry, looked up): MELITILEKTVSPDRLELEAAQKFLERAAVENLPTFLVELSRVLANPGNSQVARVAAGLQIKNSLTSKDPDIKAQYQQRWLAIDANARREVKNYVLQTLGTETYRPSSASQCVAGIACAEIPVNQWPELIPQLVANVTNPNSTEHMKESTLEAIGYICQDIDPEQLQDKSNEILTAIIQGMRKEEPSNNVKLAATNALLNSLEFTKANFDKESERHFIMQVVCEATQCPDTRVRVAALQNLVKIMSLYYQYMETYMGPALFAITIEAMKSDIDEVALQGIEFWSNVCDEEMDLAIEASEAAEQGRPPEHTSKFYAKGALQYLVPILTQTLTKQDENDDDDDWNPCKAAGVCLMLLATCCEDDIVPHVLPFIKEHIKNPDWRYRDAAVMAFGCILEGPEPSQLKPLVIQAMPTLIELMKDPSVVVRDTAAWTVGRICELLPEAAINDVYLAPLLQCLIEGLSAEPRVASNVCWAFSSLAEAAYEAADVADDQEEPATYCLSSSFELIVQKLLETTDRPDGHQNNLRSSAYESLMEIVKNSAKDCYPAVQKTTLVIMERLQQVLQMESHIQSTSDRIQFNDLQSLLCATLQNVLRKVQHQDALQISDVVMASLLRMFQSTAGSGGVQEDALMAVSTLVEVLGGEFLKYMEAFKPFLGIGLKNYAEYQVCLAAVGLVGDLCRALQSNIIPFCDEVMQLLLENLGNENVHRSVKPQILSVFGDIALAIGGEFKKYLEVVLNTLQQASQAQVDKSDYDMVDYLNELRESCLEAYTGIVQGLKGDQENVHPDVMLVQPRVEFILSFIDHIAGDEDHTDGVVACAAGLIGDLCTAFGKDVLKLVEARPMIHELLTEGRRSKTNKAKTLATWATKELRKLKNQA
#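 Inhibition scored from the CFP 486 nm/YFP 530 nm FRET ratio 45 min after adding 0.125 microM importin beta to 50 nM Rango biosensor preincubated 5 min with compound (room temperature, PBS with DTT, Tween-20, BSA). No-importin wells as positive control.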
# Rango dissoc inh: qHTS Assay for Inhibitors of RanGTP induced Rango (Ran-regulated importin-beta cargo) - Importin beta complex dissociation; Snurportin-1 (Homo sapiens) + GTP-binding nuclear protein Ran (Homo sapiens) + Importin …; Potency, µM (top dose mostly 46.1 µM), for the others: at the top dose activity change, negative = inhibition; Biochemical FRET Rango-importin beta, RanGTP-induced dissociation; AID 540253, 2011; 340,000 tested, 0.071% active; active means falling FRET ratio curve, often poorly fitted, with flat reads before Ran was added; inconclusive means other falling curves, or compound fluorescence or quenching; inactive means flat or rising ratio curve;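 also: potency is read from the fitted curve at half-maximal effect; % of control where 0% means no effect; nearly all actives have a fitted effect of over 45% in size; -100% = wells without RanGTP and RCC1; the record marks most hits as doubtful in a second field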
#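 Quantitative HTS using a FRET biosensor: 0.1 uM Rango, 0.25 uM importin beta, 0.6 uM Ran, 2 mM GTP, 0.2 uM RCC1 final, PBS with DTT, Tween-20 and BSA. Post-read taken 45 min after Ran addition.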
# GLA inh pH 4.5: qHTS Assay for Inhibitors of Human alpha-Galactosidase at pH 4.5. Alpha-galactosidase A (Homo sapiens), P06280. purified enzyme, 4-MU-alpha-Gal fluorescence, pH 4.5. activity change, negative = inhibition, % at 105 µM. 230,000 tested, under 10 active. AID 1467, 2008; inconclusive = small, poorly fitted or top-dose-only inhibition, or a rising curve; inactive = flat fitted curve, though single readings scatter; no compound was filed as active;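 also: 0% = full activity with enzyme and -100% = basal without enzyme; dose as in the result columns while the protocol names 77 µM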
# miR-21 reporter: qHTS Assay for Modulators of miRNAs and/orActivators of miR-21; Potency, µM (titrated, usually from 38.3 µM), for inactives: at the highest dose reporter change, positive = more light; AID 2288, 2010; HeLa miR-21 FLuc reporter, luciferase, 48 h; 340,000 tested, under 10 active; active = well fitted rising curve with a large enough effect; inconclusive = small, poorly fitted or top-dose-only effect; inactive = no such curve, though single readings can be large or run the other way;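 also: % of control where 0% means no effect; miR-21 action dims this reporter so a rising signal means less miR-21 action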
#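 Compounds were titrated across several concentrations (up to approximately 40 uM) and incubated 48 hours with HeLa miR-21-FLuc reporter cells (miR-21 target sequence downstream of FLuc, endogenous miR-21). Readout was firefly luciferase luminescence after lytic detection reagent.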
# * hit, by the source's call; ? = inconclusive; · = not tested or not shown; & = joins results of further samples. These rows are one share of the data; the hit share may differ from the screen's.
# Second line of a record – miR-21 reporter	Rango dissoc inh	Rango-impB inh	GLA inh pH 4.5
Cn1c(COc2ccccc2)nnc1SCC(=O)Nc1ccc(S(N)(=O)=O)cc1
 : 6%	-6%	-4.8%	-25
COc1cc([N+](=O)[O-])ccc1NC(=O)NNC(=O)CCc1ccccc1
 : 6%	-4%	-1.4%	·
CCCCN(C(=S)NC(=O)c1cc(OC)c(OC)c(OC)c1)c1c(N)n(Cc2ccccc2)c(=O)[nH]c1=O
 : 0%	-15%	3.3%	-1
O=C(c1cccc(Cl)c1)N1CCCC(C(=O)N2CCCCCC2)C1 (stereo not given)
 : 0%	-7%	2.9%	1
O=C(O)C1C2CCCCC2=C2CCCCC2C1C(=O)c1ccccc1 (stereo not given)
 : 6%	-11%	1.6%	-5
Cc1cc2ccccc2c(=O)[nH]1
 : -8%	-11%	3.6%	1
Cc1cc(S(=O)(=O)NCC(=O)O)ccc1F
 : -2%	24%	0.2%	-7
O=C1/C(=C\c2ccc(Br)o2)SC(=Nc2ccccc2)N1c1ccccc1
 : 1%	-6%	-4.7%	-1
COc1ccc(S(=O)(=O)N2CCC(C(=O)N3CCc4ccccc4C3)CC2)cc1
 : 1%	-7%	0.4%	0
O=C(C1CCN(C2CCN(Cc3ccsc3)CC2)CC1)N1CCOCC1
 : -5%	-5%	5.7%	·
Cc1ccc(C2CC(c3ccccc3)=NN2C(=O)CSc2nnc(-c3ccncc3)n2C)o1 (stereo not given)
 : 0%	2%	0.3%	-5
CCCCOc1ccc(OC(=O)Nc2cc(Cl)ccc2OC)cc1
 : -8%	16%	-0.3%	1
CS(=O)(=O)N1CCCC(C(=O)Nc2c(F)cccc2F)C1 (stereo not given)
 : 0%	-13%	-3.0%	·
Cc1csc(CN(C)C(=O)CC2C(=O)NCCN2Cc2ccc(Cl)c(F)c2)n1 (stereo not given)
 : -6%	0%	?	·
Cc1ccc(S(=O)(=O)N2CC(C(=O)O)Oc3ccccc32)cc1 (stereo not given)
 : -2%	-11%	-1.9%	·
c1ccc(-c2nnc3sc(-c4ccncc4)nn23)cc1
 : -17%	6%	-0.5%	-13
O=C(COc1ccc(S(=O)(=O)N2CCOCC2)cc1Cl)NCc1ccccn1
 : 0%	1%	0.3%	·
COC(=O)c1cc(S(=O)(=O)N2CCCCCC2)c[nH]1
 : -4%	6%	1.0%	·
CC1CCCN(S(=O)(=O)c2csc(C(N)=O)c2)C1 (stereo not given)
 : 2%	7%	0.0%	·
COc1cc(/C=C/C(=O)C2C(=O)C=C(C)OC2=O)cc(OC)c1O (stereo not given)
 : -30%	?	?	-6
O=C(C1CCN(S(=O)(=O)c2cccc3cccnc23)CC1)N1CCN(c2ccccc2)CC1
 : 8%	0%	1.0%	11
CCn1c(C)cc(/C=C2/SC(=O)N(CC(=O)N3CCCC3)C2=O)c1C
 : -36%	?	?	·
CCCCNC(=S)NNC(=O)c1nn(C)cc1Cl
 : -11%	14%	1.8%	7
Cc1cc(=O)[nH]c(SCC(=O)Nc2nc(-c3ccccc3)cs2)n1
 : -10%	2%	-4.4%	-1
COc1ccc(NC(=O)CSc2nnc(Cc3ccccc3)o2)c(OC)c1
 : 0%	10%	0.2%	11
COC(=O)c1ccc(N=NNc2ccccc2)cc1
 : -58%	-4%	1.5%	2
Cc1ccc2c(c1)C1(OCCO1)C(=O)N2
 : -3%	0%	-2.9%	6
CC(C)N(c1ccccc1)c1ncnc(NCCC(=O)O)c1[N+](=O)[O-]
 : -9%	-1%	-0.7%	0
CCCn1c(=N)c(C#N)cc2c(=O)n3cccc(C)c3nc21
 : -1%	·	·	6
Cn1c(CCc2ccc(N)cc2)nc2ccccc21
 : -41%	16%	2.6%	10
COc1ccccc1Nc1ccc([N+](=O)[O-])cn1
 : -24%	-10%	7.4%	-3
COc1ccc(CCNC(=O)c2cc(-c3cc(C)cc(C)c3O)n[nH]2)cc1OC
 : 4%	13%	3.8%	-5
CCOC(=O)C1(Cc2ccc(Cl)cc2)CCN(C(=O)c2cc(C)nc(C)n2)CC1
 : -8%	-11%	0.2%	5
CN1CCN(c2ccc([N+](=O)[O-])cc2S(=O)(=O)N2CCOCC2)CC1
 : 0%	5%	-0.9%	0
Cc1ccccc1NC(=O)N1CCCC(c2nc(-c3ccc(C(C)C)cc3)no2)C1 (stereo not given)
 : 20%	12%	-0.5%	-21
Nc1ncc(Br)cc1S(=O)(=O)NCCC(=O)NCCc1ccccc1
 : -6%	?	3.5%	·
O=C(Nc1ccc(NC(=S)NC(=O)c2ccco2)cc1)c1ccccc1
 : -10%	-8%	-2.2%	·
CCN(CC)CCCNC(=S)N(Cc1cccnc1)Cc1cc2cc(C)ccc2[nH]c1=O
 : 13%	-20%	3.5%	-10
CC(=O)Nc1ccc(NC(=O)c2c(C)nn(Cc3ccccc3Cl)c2C)cc1
 : -4%	0%	3.2%	·
CC(C)(C)OC(=O)NCCc1nnc(SCC(=O)c2ccc(Cl)cc2)o1
 : 17%	3%	1.1%	1

# 7 compounds out of the list above, sorted by the number in Rango dissoc inh, smallest number first.
# Second line of a record – miR-21 reporter	Rango dissoc inh	Rango-impB inh	GLA inh pH 4.5
O=C(Nc1ccc(NC(=S)NC(=O)c2ccco2)cc1)c1ccccc1
 : -10%	-8%	-2.2%	·
O=C(c1cccc(Cl)c1)N1CCCC(C(=O)N2CCCCCC2)C1 (stereo not given)
 : 0%	-7%	2.9%	1
O=C(C1CCN(C2CCN(Cc3ccsc3)CC2)CC1)N1CCOCC1
 : -5%	-5%	5.7%	·
Cc1ccc2c(c1)C1(OCCO1)C(=O)N2
 : -3%	0%	-2.9%	6
Cc1cc(=O)[nH]c(SCC(=O)Nc2nc(-c3ccccc3)cs2)n1
 : -10%	2%	-4.4%	-1
COc1ccc(NC(=O)CSc2nnc(Cc3ccccc3)o2)c(OC)c1
 : 0%	10%	0.2%	11
Cc1ccccc1NC(=O)N1CCCC(c2nc(-c3ccc(C(C)C)cc3)no2)C1 (stereo not given)
 : 20%	12%	-0.5%	-21

# A portion from the list above, as a working copy:
# Second line of a record – miR-21 reporter	Rango dissoc inh	Rango-impB inh	GLA inh pH 4.5
COc1ccc(NC(=O)CSc2nnc(Cc3ccccc3)o2)c(OC)c1
 : 0%	10%	0.2%	11
COC(=O)c1ccc(N=NNc2ccccc2)cc1
 : -58%	-4%	1.5%	2

# Next part:
# Second line of a record – miR-21 reporter	Rango dissoc inh	Rango-impB inh	GLA inh pH 4.5
N#Cc1c(N)sc(=S)c2c1CCCC2
 : -2%	-2%	3.8%	10
COc1cccc(CNc2ncnc3ccc(-c4c(C)noc4C)cc23)c1
 : ·	7%	0.2%	·
CCOC(=O)N1CCC(NC(=O)C2CCN(S(=O)(=O)c3cnc[nH]3)CC2)CC1
 : 1%	2%	-0.4%	2
C[N+]1(CC(O)COc2ccccc2)CCN(C(=O)c2ccc([N+](=O)[O-])cc2)CC1 (stereo not given)
 : -5%	43%	?	-13
C/C(=N\NC(=O)c1ccc([N+](=O)[O-])cc1Cl)c1ccccc1
 : -39%	2%	4.7%	-1
COc1ccc(OC)c(N/C=C/C(=O)c2ccccc2)c1
 : 25%	?	?	·
Nc1cc2c3ccccc3ccc2c2ccccc12
 : ·	?	-3.9%	·
Cc1ccc(C)c(S(=O)(=O)N2CCN(C(=O)[C@H](C)N3C(=O)C4CC=CCC4C3=O)CC2)c1 (stereo not given in full)
 : ·	1%	0.5%	·
Cc1cc(SCC(=O)c2ccccc2)n2nc(C)nc2n1
 : -13%	-16%	-6.2%	9
COc1ccc(C(=O)NCc2cccnc2)cc1OC
 : 0%	-11%	-5.2%	6
Cc1ccc(C(=O)Nc2cc3ccccc3oc2=O)cc1
 : 4%	-2%	-2.2%	3
Cc1ccc(N2N=C(C(=O)O)CCC2=O)cc1Cl
 : -3%	-11%	1.7%	·
COC(=O)[C@@]1(Cc2ccccc2)[C@H]2C(=O)N(Cc3ccccc3)C(=O)[C@H]2[C@H]2CN=C(SCc3ccc(Cl)cc3)N21
 : ·	-1%	-3.1%	·
O=C(Nc1ccc(OCC(=O)N2CCOCC2)cc1)Nc1cccc2ccccc12
 : 2%	?	?	0
Nc1nc(NS(=O)(=O)c2ccc(Cl)cc2)nn1-c1ccccc1
 : -2%	-14%	4.7%	8
Cc1onc(-c2ccccc2Cl)c1C(O)c1ccc(F)cc1 (stereo not given)
 : 3%	2%	-1.0%	·
COc1ccc(-n2nc(C(=O)NCC(=O)N3CCN(c4ccccn4)CC3)c3ccccc3c2=O)c(OC)c1
 : ·	-16%	-0.8%	·
O=C(O)c1ccc(CNCc2ccc(Cl)cc2)cc1
 : -2%	-8%	0.4%	-10
COC(=O)c1ccccc1OC(=O)c1cccnc1
 : 0%	3%	-0.5%	6
CCC(=O)N1CCc2cc(S(=O)(=O)CCC(=O)NCCC3=CCCCC3)ccc21
 : -2%	11%	0.7%	-7
COc1ccc(C(CNC(=O)c2cc(C)on2)N(C)C)cc1 (stereo not given)
 : -4%	3%	-0.6%	·
Cc1cccc(NC(=O)CSc2nc3sc(C)cc3c(=O)n2C)c1
 : ·	-3%	0.1%	·
O=C(Nc1cccc(Cl)c1)c1cc(S(=O)(=O)N2CCCCC2)c[nH]1
 : -1%	-1%	-0.7%	·
Cc1ccc(NC(=O)c2cc(C)nc3ccccc23)cc1
 : -9%	-13%	-0.1%	·
COc1cc(C(=S)N2CCCC2)cc(Cl)c1OCC(=O)Nc1ccc(C)cc1C
 : -9%	-14%	2.8%	0
O=C(NCc1cccnc1)C1CC(=O)N(c2ccc(F)cc2)C1 (stereo not given)
 : -3%	7%	1.1%	-15
CC(=O)NS(=O)(=O)c1ccc(NC(=S)NC(=O)CC(C)C)cc1
 : 0%	-6%	0.9%	0
O=C(NCc1ccccn1)c1cc2n(n1)C(C(F)(F)F)CC(c1ccco1)N2 (stereo not given)
 : 0%	-19%	7.1%	0
Cc1cc(C)n2c(SC/C(O)=C(\C#N)c3nc4ccccc4[nH]3)nnc2n1
 : -4%	?	?	12
CC1CCCN(CCOCCOc2ccc(Cl)cc2Br)C1 (stereo not given)
 : 7%	1%	-3.9%	0
COCCCn1c(=NC(=O)c2ccccc2)c(C#N)cc2c(=O)n3cccc(C)c3nc21
 : ?	?	?	?
CCCC(=O)Nc1c(-c2cccc(OC)c2)c(=O)c2ccccc2n1C
 : -3%	22%	0.9%	·
Cc1cc(C)nc(N(C#N)CC(=O)N(c2ccccc2)C(C)C)n1
 : -6%	10%	4.0%	-14
Cc1cc(=O)n(-c2ccccc2)n1C
 : ·	-16%	0.1%	3&2
CCn1c(=O)cc(OCC(=O)NCCC(C)C)c2ccccc21
 : -15%	-11%	-0.7%	-4
CCC1(C)COC(c2ccc(OC)c(OC)c2)OC1 (stereo not given)
 : ·	2%	0.8%	·
Cc1cccc(NC(=O)/C(=C\c2ccco2)NC(=O)c2cccs2)c1
 : -10%	-30%	?	1
CC(O)CNCCOc1cccc(Oc2ccccc2)c1 (stereo not given)
 : 3%	3%	5.3%	6
Cc1c(C(=O)NCCC2=CCCCC2)oc2ccc(S(=O)(=O)N3CCC4(CC3)OCCO4)cc12
 : 20%	2%	0.3%	-4
CCOC(=O)c1cc(NC(=O)NC2CCCCC2)c(C)nc1C
 : -4%	0%	2.7%	·
C=CC[C@@H](CC(=O)N(CCO)Cc1ccccc1)C(=O)N[C@H](COC(=O)[C@@H](CC=C)CC(=O)OC(C)(C)C)Cc1ccccc1
 : ·	0%	-0.6%	·
CCOC(=O)c1c(NC(=O)CN2C(=O)C(=O)N(CC(C)C)C2=O)sc(C)c1CC
 : ·	8%	2.4%	·
CC1CCCCN1CCn1cnc2c([nH]c3ccccc32)c1=O (stereo not given)
 : -6%	-3%	2.0%	2

# Screening results from PubChem.
